miR-21 FLuc: miR-21 reporter, rising signal | HeLa miR-21 FLuc reporter, luciferase, 48 h | 340,000 tested, under 10 active | Potency, µM (doses to about 38.3 µM), for the others: top-dose reporter change, positive = more light; active = well fitted rising curve with a large enough effect; inconclusive = small, poorly fitted or top-dose-only effect; inactive = no such curve, though single readings can be large or run the other way;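 note: % of control where 0% means no effect; miR-21 action dims this reporter so a rising signal means less miR-21 action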
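Luminescence from a firefly luciferase reporter carrying a miR-21 binding site downstream, stably expressed under a CMV promoter in HeLa cells that make miR-21 endogenously, reports miRNA modulation after 48 h compound exposure up to approximately 40uM final.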
* = called active by the depositor; u = inconclusive. Only part of the results is shown (hit frequency here may not be typical).

SMILES | miR-21 FLuc
COc1ccc(C2CC(c3c(O)n(C4CCCCC4)c(=O)[nH]c3=O)=Nc3ccccc3S2)cc1 (centres undefined) | 1%
COc1ccc(S(=O)(=O)NCC(c2ccco2)N2CCN(c3ccccc3F)CC2)cc1C (centres undefined) | 14%
COc1ccc2c(CNC3CCCCCC3)c(C(=O)O)n(Cc3cccc(F)c3)c2c1 | 4%
CCOc1ccc(CNC(=O)C2CCN(C3=NS(=O)(=O)C(c4ccc(C)cc4)=C3CC)CC2)cc1 | 26%
COc1ccc(-c2cc3ccc(O)c(CN4CCOCC4)c3oc2=O)cc1OC | -3%
CCn1cc(S(=O)(=O)c2cc(C)cc(C)c2)c(=O)c2cc(F)c(N3CCCC3)cc21 | -9%
CCC(C)NC(=O)Cc1ccc(NC(=O)N2CCCCc3ccccc32)cc1 (centres undefined) | -1%
CCc1ccc2nc(N(Cc3cccnc3)C(C)=O)sc2c1 | -67%
Cc1ccc(-c2nc3scc(CCNC(=O)c4cccc(Br)c4)n3n2)cc1 | 7%
c1ccc(Nc2c(-c3c[nH]c4ccccc34)nc3ccccn23)cc1 | -16%
COc1ccccc1NC(=O)Cn1cc(S(=O)(=O)Cc2ccccc2)c2ccccc21 | 13%
COc1ccc(NC(=O)c2sc3nc4c(cc3c2N)CN(C(C)C)CC4)c(OC)c1 | 22%
COc1cc(C(=O)NCc2ccc3c(c2)CCN3C(=O)c2ccncc2)cc(OC)c1OC | 11%
O=C(CC(c1cccs1)N1Cc2ccccc2C1=O)Nc1ccc(F)c(F)c1 (centres undefined) | 1%
Cc1cc(C)nc(NS(=O)(=O)c2ccc(NC(=O)c3nc(SC(C)C)ncc3Cl)cc2)n1 | 3%
COC(=O)c1scc(-c2ccc(C)cc2)c1S(=O)(=O)N1CCN(c2ccc(OC)cc2)CC1 | 6%
COc1ccc(-c2c3c(=O)n(C)c(=O)n(C)c3c3c(-c4cccc(C)c4)nc4ccccc4n23)cc1 | -1%
COc1ccc(-c2noc(CC(=O)N(C)c3cc(Cl)c(OC)cc3OC)n2)cc1 | -7%
CC(=O)Nc1c(C)nn(-c2ccccc2)c1N1CCC(C(=O)Nc2cc(Cl)ccc2C)CC1 | 0%
COc1cc(-c2nc3ccccn3c2Nc2ccccc2C)ccc1O | -1%
CC1Cc2cc(S(=O)(=O)NCc3ccc(N(C)C)cc3)ccc2N1C(=O)C1CCC1 (centres undefined) | 20%
O=C(c1ccc2c(c1)N(Cc1ccccc1F)C(=O)c1ccccc1S2(=O)=O)N1CCc2ccccc21 | 11%
Cc1ccc(-n2ncc(C(=O)NCc3ccccn3)c2C2CCN(C(=O)OC(C)(C)C)CC2)cc1C | 24%
COc1ccccc1/C=C/c1nc(C#N)c(N2CCN(C)CC2)o1 | -22%
COc1ccc(C2=C(C(C)=O)Sc3nnc(-c4ccccc4)n3N2C(C)=O)cc1 | 1%
COc1ccc(NC(=O)C2(c3cccs3)CCOCC2)cc1Cl | -6%
CCc1cccc(C)c1NC(=O)CSc1n[nH]c(-c2ccccc2)n1 | 13%
Cc1cccc(-n2ncc(C(=O)N3CCN(c4ccc(C)cc4C)CC3)c2C2CCN(C(=O)OC(C)(C)C)CC2)c1 | -3%
CCOc1ccccc1C(=O)Nc1ccc(S(=O)(=O)Nc2ncccn2)cc1 | -17%
Cc1ccc(NC(=O)CCS(=O)(=O)c2ccc(Br)s2)c(Br)c1 | -1%
O=C(c1ccc2c(c1)N(Cc1ccccc1)C(=O)c1ccccc1S2=O)N1CCC(Cc2ccccc2)CC1 (centres undefined) | u
Cc1ccccc1-n1cc(-c2ccccc2)nc1SCC(=O)Nc1ccc(F)cc1 | 12%
CCOc1cccc2sc(N(Cc3cccnc3)C(=O)C3CCCCC3)nc12 | 18%
COc1ccc(-c2nc3c(c(SCc4cc(C)ccc4C)n2)Cc2c(CO)cnc(C)c2O3)cc1 | 0%
Cc1ccc(C)c(N2CCN(S(=O)(=O)c3ccc4c(c3)CCCN4C(=O)C3CCC3)CC2)c1 | -3%
CN(c1ccc(Cl)cc1)S(=O)(=O)c1nnc(NC(=O)C2CCCCC2)s1 | -5%
COC(=O)c1c(NC(=O)CCCOc2cccc(C)c2)sc2c1CCC(C)C2 (centres undefined) | -9%
Cc1cc(C)c2nc(N(Cc3cccnc3)C(=O)c3ccc(S(=O)(=O)N(C)C)cc3)sc2c1 | -9%
Cc1ccc(Cl)cc1NC(=O)C1CCN(c2nc3ccccc3n3cccc23)CC1 | 3%
O=C(Nc1ccccc1Cl)N1CCC(CN2CCCCC2)CC1 | -2%
CC(=O)c1ccc(NC(=O)Cn2cc(S(=O)(=O)Cc3cccc(Cl)c3)c3ccccc32)cc1 | -7%
CCOc1ccc(-c2nnc(SCC(=O)Nc3cccc(Cl)c3C)o2)cc1 | 0%
COc1ccc(OC)c(CNc2ncnc3onc(C)c23)c1 | 2%
COc1cccc(NC(=O)Cc2ccc(NC(=O)N3CCCCc4ccccc43)cc2)c1 | -4%
Cc1ccc(OCCCC(=O)Nc2sc3c(c2C(N)=O)CCC(C)C3)cc1 (centres undefined) | -9%
COc1ccc(OC)c(CNC(=O)c2cc(-c3ccc(Cl)s3)nc3ccccc23)c1 | 2%
O=C(Cn1c(=O)oc2cc(S(=O)(=O)NCc3ccccc3)ccc21)NCc1ccccc1Cl | 15%
COc1ccc(CCNC(=O)c2ccc3c(c2)N=C(C)c2cc(C)ccc2S3)cc1OC | 19%
CCN(Cc1ccccc1)c1nc2c(S(=O)(=O)c3ccccc3)nnn2c2ccc(Cl)cc12 | -11%
CC1(C)CC(=O)c2cc(C(=O)Nc3ccc(Cl)cc3)c(=O)[nH]c2C1 | -48%
Cc1nnc(N2CCC(C(=O)NC(C)C)CC2)c2nn(-c3ccc(Cl)cc3)c(C)c12 | 3%
O=C(Nc1ccc2nc(SCCOc3ccccc3)sc2c1)c1ccccc1F | 2%
Cc1ccc(CCNC(=O)c2ccc3c(c2)N(Cc2ccccc2F)C(=O)c2ccccc2S3=O)cc1 (centres undefined) | 1%
CC1=C(C(=O)Nc2ccccc2)C(c2ccc(Br)cc2)n2nc(CCCO)nc2N1 (centres undefined) | -3%
Cc1cccc(Cn2cc(C(=O)Nc3cc(F)ccc3F)ccc2=O)c1 | -2%
CCOc1ccccc1C(=O)N1CCC(c2nc3ccccc3o2)CC1 | 8%
Cc1ccc(C)c(NC(=O)CSc2cn(CC(=O)N3CCCC3)c3ccccc23)c1 | 10%
Cc1ccc(C)c(N2CCN(S(=O)(=O)c3cc(C(=O)Nc4ccccc4C(F)(F)F)ccc3F)CC2)c1 | 7%
O=S(=O)(c1cccc(F)c1)N1CCC(c2nc3ccccc3s2)CC1 | 8%
CCOc1ccc(NC(=O)Cn2cc(S(=O)(=O)N3CCN(c4ccccc4F)CC3)c3ccccc3c2=O)cc1 | -23%

(continued)
SMILES | miR-21 FLuc
COc1ccccc1-c1nnc(C2CCN(S(=O)(=O)c3ccc(F)c(C)c3)CC2)o1 | 0%
Cc1cc(C)c(NC(=O)C(C)n2nc(-c3ccc(C)c(C)c3)ccc2=O)c(C)c1 (centres undefined) | -7%
c1ccc(Cc2nnc(SCc3nc(-c4cccs4)no3)n2-c2ccccc2)cc1 | 13%
N#Cc1c(N)n(-c2cccc(Cl)c2)c2nc3ccccc3nc12 | -13%
Cc1ccc(Cn2c(=O)n(-c3cccc(C(F)(F)F)c3)c(=O)c3c(C)c(C)sc32)c(C)c1 | -2%
O=C(NCc1ccc2c(c1)CCN2C(=O)c1ccncc1)c1ccccc1Cl | u
N#Cc1c(-c2ccccc2)cc(-c2ccccc2)nc1SCC(=O)Nc1ccc(Cl)cc1 | 1%
CCc1ccc(NC(=O)N2c3ccccc3Sc3ccccc32)cc1 | 1%
COc1cccc(CN2C(=O)c3ccccc3Sc3ccc(C(=O)NCCc4ccc(Cl)cc4)cc32)c1 | 9%
COc1ccc(-c2coc3c2c(C)cc2oc(=O)c(C)c(C)c23)cc1 | -4%
CCC(=O)Nc1ccc(-c2nc3ncccc3o2)cc1C | -45%
COc1ccc(OC)c2sc(N3CCN(C(=O)c4ccco4)CC3)nc12 | 0%
COc1ccccc1OCCCn1c(-c2ccc(Cl)cc2)nc2ccccc2c1=O | -6%
Cc1cccc(C(=O)N2CCc3cc(CNC(=O)c4cc5ccccc5[nH]4)ccc32)c1 | 15%
Cc1c(C(=O)NCc2ccccc2)sc2nc3n(c(=O)c12)CCCCC3 | -25%
O=C(Cn1nc(C(F)(F)F)c2c1CCCC2)Nc1ccc(F)c(Cl)c1 | u
CCn1nnc2cc(C(=O)Nc3ccc(Cl)cc3C)ccc21 | -17%
CCc1cnc2c(c1SCC(=O)Nc1ccc(OC)c(OC)c1)c(=O)n(C)c(=O)n2C | 0%
Cc1cn(C)c(CC(=O)N2CCN(c3cccc(Cl)c3)CC2)c1C(=O)O | 0%
Cc1cccc(-c2noc(CN(C(=O)COc3ccc(C(C)C)cc3)C(C)C)n2)c1 | 12%
CCc1nnc(NC(=O)CSc2nccn2Cc2ccc(C)cc2)s1 | -2%
Cc1cc(C)c(NC(=O)Cn2c(=O)n(CCC(C)C)c(=O)c3cccnc32)c(C)c1 | 0%
CC(NC(=O)c1ccc2c(c1)sc1nc(-c3ccc(F)cc3)cn12)C12CC3CC(CC(C3)C1)C2 (centres undefined) | -5%
CCCCCOc1ccc(C2c3c(oc4ccccc4c3=O)C(=O)N2c2nc(C)c(C)s2)cc1OCC (centres undefined) | -4%
CCn1c(SCC(=O)Nc2ccccc2C(=O)OC)nc2ccsc2c1=O | -8%
COc1ccc(-c2nc3cc(NC(=O)COc4ccc(C)c(C)c4)ccc3o2)cc1 | -22%
Cc1cc(C)c(Cn2c(=O)n(Cc3ccccc3)c(=O)c3c(C)c(C)sc32)c(C)c1 | 0%
COc1cc(Cl)c(NC(=O)c2cc3ccccn3n2)c(OC)c1 | -71%
O=C(CSc1oc(-c2ccc(F)cc2)nc1S(=O)(=O)c1ccccc1)c1ccc(Cl)cc1 | 19%
CC(NC(=O)C1CCN(S(=O)(=O)Cc2ccccc2)CC1)c1ccccc1 (centres undefined) | -9%
CN(C)S(=O)(=O)c1ccc2c(c1)c(=O)c(C(=O)N1CCN(c3cccc(Cl)c3)CC1)cn2C | 8%
Cc1csc2nc(COc3ccc(NC(=O)C(C)C)cc3)cc(=O)n12 | -34%
O=S1(=O)c2ccccc2N(Cc2ccccc2F)c2ccccc21 | 0%
O=C(c1ccc2c(c1)N(Cc1ccccc1F)C(=O)c1ccccc1S2=O)N1CCOCC1 (centres undefined) | 1%
Cc1ccc(C(=O)N2CCc3cc(CNC(=O)CCc4ccccc4)ccc32)cc1 | -2%
COc1ccc(CNC(=O)c2cc3cc(S(=O)(=O)N4CCCCC4)ccc3n2C)c(OC)c1 | 12%
O=C(NCc1cccc(Cl)c1)c1cc2c(s1)-c1ccccc1OC2 | -2%
O=C(Cn1ncc2c3ccccc3n(Cc3ccccc3)c2c1=O)NCCCN1CCCCC1 | -2%
COCCCNC(=O)C1CCN(C(=O)c2cnn(-c3ccccc3)c2-n2cccc2)CC1 | -1%
CCn1c(=O)c2sccc2n2c(CCCC(=O)Nc3ccc(C)cc3)nnc12 | 0%

Next section; the last two above are carried over.
SMILES | miR-21 FLuc
COCCCNC(=O)C1CCN(C(=O)c2cnn(-c3ccccc3)c2-n2cccc2)CC1 | -1%
CCn1c(=O)c2sccc2n2c(CCCC(=O)Nc3ccc(C)cc3)nnc12 | 0%
CCOc1ccc(C(=O)c2cn(CC(=O)Nc3ccc(Cl)cc3)c3cc4c(cc3c2=O)OCO4)cc1 | 28%
CCN(CC)c1ccc2cc(-c3nc(-c4ccccc4F)no3)c(=O)oc2c1 | -51%
COc1cc(NC(=O)CSc2nc(-c3ccccc3)no2)cc(OC)c1 | -5%
CCOc1ccc(OCC)c(NC(=O)c2c(C)nn(-c3ccccc3)c2-n2cccc2)c1 | 13%
COC(=O)c1ccc(NC(=O)c2c(NCc3ccc(C)o3)sc3c2CCCC3)cc1 | -13%
Cc1c(C(=O)N(C)C)sc2c1c(=O)n(-c1ccc(Cl)c(Cl)c1)c(=O)n2CC(=O)Nc1cccc(C(F)(F)F)c1 | -1%
Cc1ccc(-n2nc(C(=O)N3CCN(c4ccccc4F)CC3)c(=O)n(C)c2=O)cc1 | -4%
CCOC(=O)c1c(-c2ccc(C)cc2)csc1NC(=O)c1cc(=O)c2cc(C)cc(C)c2o1 | -16%
CCOC(=O)/C(C#N)=C/c1ccc(-c2ccccc2)o1 | -62%
O=C(NCc1ccc2c(c1)CCN2C(=O)c1ccccc1)c1cc2ccccc2[nH]1 | -11%
COc1cccc(CNC(=O)c2cccn2-c2nnc(N3CCCC3)s2)c1 | 7%

Structural class, the compounds so far containing an aryl thioether with sulfur outside any ring (14)
SMILES | miR-21 FLuc
Cc1cc(C)nc(NS(=O)(=O)c2ccc(NC(=O)c3nc(SC(C)C)ncc3Cl)cc2)n1 | 3%
CCc1cccc(C)c1NC(=O)CSc1n[nH]c(-c2ccccc2)n1 | 13%
Cc1ccccc1-n1cc(-c2ccccc2)nc1SCC(=O)Nc1ccc(F)cc1 | 12%
COc1ccc(-c2nc3c(c(SCc4cc(C)ccc4C)n2)Cc2c(CO)cnc(C)c2O3)cc1 | 0%
CCOc1ccc(-c2nnc(SCC(=O)Nc3cccc(Cl)c3C)o2)cc1 | 0%
O=C(Nc1ccc2nc(SCCOc3ccccc3)sc2c1)c1ccccc1F | 2%
Cc1ccc(C)c(NC(=O)CSc2cn(CC(=O)N3CCCC3)c3ccccc23)c1 | 10%
c1ccc(Cc2nnc(SCc3nc(-c4cccs4)no3)n2-c2ccccc2)cc1 | 13%
N#Cc1c(-c2ccccc2)cc(-c2ccccc2)nc1SCC(=O)Nc1ccc(Cl)cc1 | 1%
CCc1cnc2c(c1SCC(=O)Nc1ccc(OC)c(OC)c1)c(=O)n(C)c(=O)n2C | 0%
CCc1nnc(NC(=O)CSc2nccn2Cc2ccc(C)cc2)s1 | -2%
CCn1c(SCC(=O)Nc2ccccc2C(=O)OC)nc2ccsc2c1=O | -8%
O=C(CSc1oc(-c2ccc(F)cc2)nc1S(=O)(=O)c1ccccc1)c1ccc(Cl)cc1 | 19%
COc1cc(NC(=O)CSc2nc(-c3ccccc3)no2)cc(OC)c1 | -5%
